Bioassay records: PubChem BioAssay, National Center for Advancing Translational Sciences (NCATS)
VACV Venus inh – qHTS for Stage-Specific Inhibitors of Vaccinia Orthopoxvirus: Venus Reporter Primary qHTS; 330,000 tested, 0.46% active; Vaccinia virus Venus reporter expression, fluorescence; Potency, µM (titrated, usually from 36.5 µM), without a hit: at the highest dose activity change, negative = inhibition, most hits filed as inhibitors; active means well fitted inhibition curve with a large enough effect; inconclusive means small, poorly fitted or top-dose-only effect; inactive means no such curve, though single readings can be large or run the other way; tested in A549 cells; note: nearly all actives have a fitted effect of over 30% in size; inactives centre near -10
VACV mCherry inh – qHTS for Stage-Specific Inhibitors of Vaccinia Orthopoxvirus: mCherry Reporter Primary qHTS; Potency, µM (doses to about 36.5 µM), for inactives: at the top dose activity change, negative = inhibition, hits mostly inhibitors; 310,000 tested, 0.63% active; Vaccinia virus mCherry reporter infection, fluorescence; about a quarter of the inactives have no number; active = well fitted inhibition curve with a large enough effect; inconclusive = small, poorly fitted or top-dose-only effect; inactive = no such curve, though single readings can be large or run the other way; tested in A549 cells; note: nearly all actives have a fitted effect of over 35% in size; inactives centre near -10
* hit, by the source's call; i = inactive; ? = inconclusive; / = not tested or not shown; [ ] = another dose, or the depositor's remark. % is set by controls: 0 for no effect and ±100 for the full control effect; potency is the fitted concentration of half-maximal effect.

Start of the listing, in advance:
SMILES	VACV Venus inh	VACV mCherry inh
COc1ccc(CCN2CC(C(=O)NCCc3cccc(F)c3)CCC2=O)cc1 (stereo not drawn)	-3%[7.34 µM]	-1%[7.34 µM]
CCCC(=O)N1c2ncnn2C2(CCCCC2)[C@@H]2CCCC[C@@H]21	-11%	-15%
CN(C(=O)OCc1ccccc1)C(CC(N)=O)C(=O)O (stereo not drawn)	-5%	i
CCOc1ccc(NS(=O)(=O)c2cccs2)cc1S(=O)(=O)N1CCCC1	-6%	i
Cc1c(C(=O)N2CCC(C)CC2)sc2ncnc(N3CCN(c4ccccc4)CC3)c12	-12%	-6%
C[C@@H](C(=O)NCCc1c[nH]c2ccccc12)[C@H]1C[C@]1(C)[C@H](NC(=O)OCc1ccccc1)c1ccccc1	-30%	-13%

The listing, from the start:
SMILES	VACV Venus inh	VACV mCherry inh
COc1ccc(CCN2CC(C(=O)NCCc3cccc(F)c3)CCC2=O)cc1 (stereo not drawn)	-3%[7.34 µM]	-1%[7.34 µM]
CCCC(=O)N1c2ncnn2C2(CCCCC2)[C@@H]2CCCC[C@@H]21	-11%	-15%
CN(C(=O)OCc1ccccc1)C(CC(N)=O)C(=O)O (stereo not drawn)	-5%	i
CCOc1ccc(NS(=O)(=O)c2cccs2)cc1S(=O)(=O)N1CCCC1	-6%	i
Cc1c(C(=O)N2CCC(C)CC2)sc2ncnc(N3CCN(c4ccccc4)CC3)c12	-12%	-6%
C[C@@H](C(=O)NCCc1c[nH]c2ccccc12)[C@H]1C[C@]1(C)[C@H](NC(=O)OCc1ccccc1)c1ccccc1	-30%	-13%
CCOC(=O)/C(C#N)=N/Nc1ccccc1C(=O)O	-11%	-16%
O=C(CN1CCC(C(=O)c2ccc(F)cc2)CC1)NCc1ccccc1F	-18%	?
COc1ccc(OCC(=O)NC2CCSc3ccccc32)cc1 (stereo not drawn)	-17%	-2%
Cc1noc(C)c1NC(=O)N(C)C[C@H]1OCc2cnnn2CCCC(=O)N([C@H](C)CO)C[C@H]1C	-8%	-10%
O=C(Nc1ccc(N2CCCC2)cc1)c1cc([N+](=O)[O-])ccc1N1CCOCC1	-21%	?
O=C(CCNC(=O)OCc1ccccc1)NC1CCCCCC1	5%	-12%
COCCCNC(=S)N1CCN(c2nc(-c3ccc(Cl)cc3)cs2)CC1	?	?
Cc1ccc(S(=O)(=O)N(C)C[C@@H]2OCc3cnnn3CCCC(=O)N([C@H](C)CO)C[C@@H]2C)cc1	-14%	-7%
CC(OC(=O)c1ccc(C#N)cc1)C(=O)Nc1ccc(Cl)cn1 (stereo not drawn)	-19%	0%
Cc1ccc(C(=O)CCCn2nnc(-c3cccnc3)n2)cc1C	-15%	-13%
CCc1ccc2oc(-c3cccc(NC(=O)C(C)(C)Oc4ccc(Br)cc4)c3)nc2c1	-7%	-6%
COc1ccc(/C=N/NC(=O)c2nc(-c3ccccc3)cc(-c3ccccc3)n2)cc1O	?	?
CCOC(=O)c1ccc(NS(=O)C23CC4CC(CC(C4)C2)C3)cc1 (stereo not drawn)	0%	i
COc1ccc(N2CCc3c(C)nc(SC)nc32)cc1	-12%	-3%
Cc1cccc(C)c1NC(=O)C(C1CC1)n1c(=O)c(-c2cc3ccccc3[nH]2)nc2ccccc21 (stereo not drawn)	?	?
CCCCCCCC(=O)NC(Nc1ccccc1OC)C(Cl)(Cl)Cl (stereo not drawn)	-19%	-15%
CCc1ccc(NC(=O)CSc2nc3ncc(Br)cc3[nH]2)cc1	-11%[7.34 µM]	i[7.34 µM]
Cc1c(C(=O)N2CCOCC2)oc2c1-c1nn(CC(=O)NCc3ccccc3)cc1CC2	-2%	-10%
O=C(CSc1nnc(CNC(=O)c2ccccc2)o1)c1ccccc1	-15%	-17%

Copied from the list.
COc1ccc(N2CCc3c(C)nc(SC)nc32)cc1 in VACV mCherry inh reads -3%
COc1ccc(OCC(=O)NC2CCSc3ccccc32)cc1 (stereo not drawn) in VACV mCherry inh reads -2%
O=C(CN1CCC(C(=O)c2ccc(F)cc2)CC1)NCc1ccccc1F in VACV Venus inh reads -18%
CCOC(=O)c1ccc(NS(=O)C23CC4CC(CC(C4)C2)C3)cc1 (stereo not drawn) in VACV Venus inh reads 0%
Cc1c(C(=O)N2CCOCC2)oc2c1-c1nn(CC(=O)NCc3ccccc3)cc1CC2 in VACV Venus inh reads -2%
CCOc1ccc(NS(=O)(=O)c2cccs2)cc1S(=O)(=O)N1CCCC1 in VACV Venus inh reads -6%

Three entries out of the list, sorted by count of non-hydrogen atoms, low to high:
SMILES	VACV Venus inh	VACV mCherry inh
CN(C(=O)OCc1ccccc1)C(CC(N)=O)C(=O)O (stereo not drawn)	-5%	i
CCCC(=O)N1c2ncnn2C2(CCCCC2)[C@@H]2CCCC[C@@H]21	-11%	-15%
Cc1cccc(C)c1NC(=O)C(C1CC1)n1c(=O)c(-c2cc3ccccc3[nH]2)nc2ccccc21 (stereo not drawn)	?	?

Next part
SMILES	VACV Venus inh	VACV mCherry inh
CCOC(=O)C1=C(C)N=c2s/c(=C\c3ccc(C(=O)O)cc3)c(=O)n2C1c1ccc(OC)cc1OC (stereo not drawn)	0%	i
O=C1C2C3C=CC(O3)C2C(=O)N1N=Cc1cccc2ccccc12 (stereo not drawn)	-6%	i
S=C(NCCc1ccccc1)N1Cc2ccccc2-n2nncc2C1	-15%	-15%
COCCNC(=O)CCn1c(=O)c2cc(OC)c(OC)cc2n(CC(=O)Nc2ccccc2OC)c1=O	-3%	-6%
COc1ccc(O)c(C(=O)c2cnn(C(=O)c3cccc(S(=O)(=O)N(C)C)c3)c2)c1	-9%	i
CC(C)C(=O)Nc1nc2c(s1)CC(C(C)(C)C)CC2 (stereo not drawn)	-15%	-20%
CCOC(=O)C(C)Sc1nnc(Cc2cc(=O)[nH]c(=O)[nH]2)n1-c1ccc(OCC)cc1 (stereo not drawn)	6%	6%
Cc1ccc(CSc2ncn(-c3ccccc3)n2)cc1	-8%	-12%
O=C(NCCCc1nc2ccccc2n1CCOc1ccccc1)C1CCCCC1	-11%	16%
CC(Oc1ccccc1)C(=O)N1CCC2(CC1)CC(=O)c1ccccc1O2 (stereo not drawn)	-9%	i
COc1ccc(-c2nnc(SCC(=O)NNC(=O)Cc3ccccc3)n2C)cc1OC	-13%	-14%
COc1ccc(C(C)(C)C)cc1NC(=O)COC(=O)CN1C(=O)NC2(CCCCC2C)C1=O (stereo not drawn)	-17%	-7%
CCC(=O)N1CCCC(C)(C(=O)Nc2ccc(C)c(C)c2)C1 (stereo not drawn)	-4%	-4%
Cc1ccc(-n2nnnc2CNC(=O)c2ccc3c(c2)OCO3)cc1C	-3%	-26%
COCCCNC(=S)NNC(=O)C(O)(c1ccccc1)c1ccccc1	-1%	7%
O=C(CSc1ccccc1)Nc1ccc(NC(=O)c2ccco2)cc1	-13%	-9%
Cc1cc(C)c(NC(=O)CSc2nc3ccccc3nc2N2CCCCC2)c(C)c1	-3%	-11%
CCCCn1c(=O)[nH]c(=O)c2c1nc(-c1cc(Br)c(OCC)c(OC)c1)n2C	-1%	6%
Cc1cccc(CC(=O)Nc2sc(C(C)C)cc2C(=O)N2CCOCC2)c1	-22%	-15%
O=C(CSC1=NC(=O)C(Cc2ccccc2)C(=O)N1)NC1CCCCC1 (stereo not drawn)	-3%	i
CC(Cc1ccccc1)N/C=C1/CC(=O)NC1=O (stereo not drawn)	-6%	-7%
COc1ccc(Br)c(Cn2c(C)c(C(=O)NCCC#N)sc2=O)c1	0%	33%[activator]
Cc1c(Cl)cccc1NC(=S)NCc1ccccc1Cl	-3%	-13%
COC(=O)c1ccc(-c2ccc(/C=N/NC(=O)CC3(C)OCCCO3)o2)cc1	-4%	i
CS(=O)(=O)N(CC(=O)N1CCC(C(N)=O)CC1)c1ccc(Oc2ccccc2)cc1	-18%	i
Following part.
SMILES	VACV Venus inh	VACV mCherry inh
C[C@@H]1CN([C@@H](C)CO)C(=O)CCCn2nncc2CO[C@@H]1CN(C)S(=O)(=O)c1ccc(Cl)cc1	-2%	i
COc1ccc2c(c1)c1c(c(=O)n(-c3cccc(C)c3)c(=O)n1CC(=O)Nc1c(C)cc(C)cc1C)n2C	5%	1%
Cc1sc2ncn(C(C)C(=O)OC3CCCCC3)c(=O)c2c1C (stereo not drawn)	-14%	i
Cc1ccc(S(=O)(=O)N2[C@H](CC(=O)c3cccc4ccccc34)OC[C@@H]2C)cc1	?	-1%
N/C(=N\OC(=O)c1ccc(Cl)cc1[N+](=O)[O-])c1cccnc1	-1%	?
COC(=O)C1=C(NC(=O)COc2ccc(Cl)cc2Cl)CCS1	-11%	-12%
Cc1ccc2nc(-c3ccccc3)cc(C(=O)N3CC(C)OC(C)C3)c2c1 (stereo not drawn)	-8%	-8%
Cc1ccccc1-n1c(Cc2cccs2)n[nH]c1=S	-15%	-7%
Cc1cc(NC(=O)C2CCCCC2)ccc1NC(=O)c1ccccc1Cl	-22%	-28%
CC(=O)NC1CCCc2c1cnn2-c1ccc(C(C)(C)C)cc1 (stereo not drawn)	-11%	-28%
O=C(CSc1ccccc1)NCC1(N2CCCCC2)CCCCC1	-8%	-8%
Cc1ccc(-c2nnn(CC(=O)N(CC3CCCO3)C(C(=O)NC3CCCC3)c3ccc(F)cc3)n2)o1 (stereo not drawn)	-2%	-8%
O=C(NC1CCCCCC1)c1ccc(Br)o1	5%	-7%
CCCC1(CCC)NC(=O)NC1=O	-4%	/
Nc1ccc2c(c1)C1(CCC2)NC(=O)NC1=O (stereo not drawn)	-9%	-18%
CN(C(=O)c1cccc(NC(=O)Cc2cccc(NC(=O)C3CCCN(C(=O)C4CC4)C3)c2)c1)C1CC1 (stereo not drawn)	3%	-9%
O=c1c(N2CCOCC2)coc2ccccc12	-14%	i
COc1ccc(N(Cc2ccccc2)C(=O)OC(C)(C)C)c(C(=O)N(C)OC)c1	-6%	i
O=[N+]([O-])c1ccc2c(c1)nc1n2CCN(C2CCCCC2)C1	-1%	-6%
CCc1cccc2c(=O)c(C(=O)N3CCOCC3)c[nH]c12	-8%	-13%
O=C(CNC(=O)C1COc2ccccc2O1)N/N=C/c1ccc([N+](=O)[O-])cc1 (stereo not drawn)	-13%	-4%
COc1cc(CN2CCNC(=O)C2CC(=O)N(C)Cc2ncc[nH]2)cc(OC)c1 (stereo not drawn)	7%	1%
CC(C)(C)OC(=O)N1CCC(C(=O)NCC2CCCO2)CC1 (stereo not drawn)	-17%	-8%
Cc1cc(C)cc(OCCNS(=O)(=O)c2cccs2)c1	-5%	-5%
CCOC(=O)c1ccc(Oc2nc(NC(C)(C)C)nc(N(C)C)n2)cc1	?	/
The list goes on.
SMILES	VACV Venus inh	VACV mCherry inh
COc1ccc(Nc2nc3cc(-c4ccccc4C)sc3c(=O)n2C)cc1OC	?	-6%
Cc1ccc(C(=O)CCC2CCCC2=O)cc1 (stereo not drawn)	-25%	/
CCCn1c(=N)n(CC(O)COc2ccccc2OC)c2ccccc21 (stereo not drawn)	-19%	-20%
Cc1ccccc1OCc1nc(-c2cccnc2)no1	-11%	-14%
O=[N+]([O-])c1cccc(/C=N/Nc2nc(C(Cl)(Cl)Cl)nc3ccccc23)c1	-4%	-18%
CCN(c1ccccc1)S(=O)(=O)c1cccc(C(=O)NCCOc2ccccc2OC)c1	-24%	-28%
CC1CCc2[nH]c3ccc(C(=O)N(C)CC(=O)Nc4ccccc4Cl)cc3c2C1 (stereo not drawn)	-18%	-2%
O=C1NC(c2cccs2)Nc2ccccc21 (stereo not drawn)	-7%	-20%
COc1ccc(/C=N/Nc2nc(C)cc(=O)[nH]2)cc1OC	-7%	-6%
O=C(CSc1nc2ccccc2[nH]1)Nc1nc(-c2cccc(Br)c2)cs1	5%	-15%
Cc1ccc([C@H]2C[C@H](n3cc(COC(=O)c4ccccc4)nn3)[C@@H](O)CN2Cc2cccs2)cc1	-13%	?
CC(=O)c1c(-c2ccccc2)c2cc([N+](=O)[O-])ccc2[nH]c1=O	?	-27%
CCn1c(P(C)(=O)O)nc2ccccc21	-4%	i
